Assay outcomes: PubChem BioAssay, Broad Institute
Ran importin: inhibitors of Ran–importin-beta complex formation, primary screen, biochemical, CFP-Ran/YFP-importin-beta FRET, RCC1, cell-free (AID 434961); Regulator of chromosome condensation (Homo sapiens) + GTP-binding nuclear protein Ran …; CFP-Ran/YFP-importin-beta FRET, cell-free; active compounds read high; inhibition, %; 7,700 tested, 0.2% active;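 active means more than half of the replicate wells above 15% inhibition; inconclusive means exactly half above it; inactive means fewer than half above it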;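 further: 0% = DMSO wells and 100% inhibition = RanGDP control wells on each plate; stock of unstated strength diluted about 400-fold; mean of two wells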
Numbers without * were called inactive; ? = inconclusive. Only part of the results is shown; count on the stated rates, not on these rows.

SMILES	Ran importin
Cc1noc(C)c1S(=O)(=O)N(C)C[C@H]1OCCCC[C@H](C)Oc2ccc(NC(=O)CCCN(C)C)cc2C(=O)N([C@H](C)CO)C[C@@H]1C	-6.6
Cc1noc(C)c1NC(=O)Nc1cccc2c1O[C@@H](CN(C)Cc1ccc3c(c1)OCO3)[C@H](C)CN([C@H](C)CO)C2=O	2.0
Cc1noc(C)c1S(=O)(=O)Nc1cccc2c1O[C@@H](CN(C)Cc1ccncc1)[C@@H](C)CN([C@@H](C)CO)C2=O	-5.8
CC(C)NC(=O)Nc1ccc2c(c1)C(=O)N([C@H](C)CO)C[C@@H](C)[C@@H](CN(C)Cc1ccccc1)OCCCC[C@@H](C)O2	-0.2
C[C@H](CO)N1C[C@H](C)[C@H](CN(C)C(=O)Nc2ccccc2)Oc2ccc(NC(=O)CCCN(C)C)cc2C1=O	0.7
Cc1noc(C)c1NC(=O)Nc1cccc2c1O[C@@H](CN(C)C(=O)NC1CCCCC1)[C@H](C)CN([C@@H](C)CO)C2=O	1.0
C[C@H]1CN([C@@H](C)CO)C(=O)c2cc(NC(=O)C3CC3)ccc2O[C@H]1CN(C)S(=O)(=O)c1cccs1	-1.6
C[C@H](CO)N1C[C@H](C)[C@H](CN(C)C(=O)NC2CCCCC2)Oc2ccc(NC(=O)Nc3ccc4c(c3)OCO4)cc2CC1=O	-0.6
Cc1noc(C)c1S(=O)(=O)Nc1ccc2c(c1)C(=O)N([C@H](C)CO)C[C@H](C)[C@@H](CN(C)C(=O)NC(C)C)OCCCC[C@@H](C)O2	-14.6
Cc1noc(C)c1S(=O)(=O)N(C)C[C@@H]1Oc2ccc(NC(=O)Cc3cn(C)c4ccccc34)cc2CC(=O)N([C@@H](C)CO)C[C@@H]1C	3.4
C[C@H](CO)N1C[C@H](C)[C@H](CN(C)C(=O)Nc2ccccc2)Oc2ccc(NC(=O)c3ccncc3)cc2CC1=O	1.1
C[C@@H]1CN([C@@H](C)CO)C(=O)c2cccc(NC(=O)c3ccncc3)c2O[C@@H]1CN(C)S(=O)(=O)c1cn(C)cn1	0.8

Next section, starting with the last five of the part before.
SMILES	Ran importin
C[C@H](CO)N1C[C@H](C)[C@H](CN(C)C(=O)NC2CCCCC2)Oc2ccc(NC(=O)Nc3ccc4c(c3)OCO4)cc2CC1=O	-0.6
Cc1noc(C)c1S(=O)(=O)Nc1ccc2c(c1)C(=O)N([C@H](C)CO)C[C@H](C)[C@@H](CN(C)C(=O)NC(C)C)OCCCC[C@@H](C)O2	-14.6
Cc1noc(C)c1S(=O)(=O)N(C)C[C@@H]1Oc2ccc(NC(=O)Cc3cn(C)c4ccccc34)cc2CC(=O)N([C@@H](C)CO)C[C@@H]1C	3.4
C[C@H](CO)N1C[C@H](C)[C@H](CN(C)C(=O)Nc2ccccc2)Oc2ccc(NC(=O)c3ccncc3)cc2CC1=O	1.1
C[C@@H]1CN([C@@H](C)CO)C(=O)c2cccc(NC(=O)c3ccncc3)c2O[C@@H]1CN(C)S(=O)(=O)c1cn(C)cn1	0.8
CC(C)NC(=O)Nc1ccc2c(c1)C(=O)N([C@H](C)CO)C[C@H](C)[C@@H](CN(C)S(=O)(=O)c1cn(C)cn1)OCCCC[C@@H](C)O2	5.1
Cc1noc(C)c1NC(=O)N(C)C[C@@H]1Oc2ccc(NC(=O)c3ccncc3)cc2CC(=O)N([C@@H](C)CO)C[C@H]1C	-4.4
CNC[C@@H]1OCCCC[C@H](C)Oc2ccc(NC(=O)C3CCCCC3)cc2C(=O)N([C@@H](C)CO)C[C@@H]1C	-2.7
COc1ccc(S(=O)(=O)Nc2ccc3c(c2)CC(=O)N([C@@H](C)CO)C[C@@H](C)[C@H](CN(C)S(=O)(=O)c2cn(C)cn2)O3)cc1	-6.0
C[C@@H]1CN([C@@H](C)CO)C(=O)Cc2cc(NC(=O)Cc3cn(C)c4ccccc34)ccc2O[C@H]1CN(C)C(=O)NC1CCCCC1	-3.8
C[C@H]1CN([C@@H](C)CO)C(=O)c2cccc(NC(=O)C3CCOCC3)c2O[C@@H]1CN(C)S(=O)(=O)c1cccs1	-0.4
CC(C)NC(=O)N(C)C[C@@H]1OCCCC[C@@H](C)Oc2ccc(N(C)C)cc2C(=O)N([C@H](C)CO)C[C@H]1C	?
C[C@@H]1CN([C@H](C)CO)C(=O)c2cccc(NS(C)(=O)=O)c2O[C@@H]1CN(C)C(=O)Nc1ccccc1	3.3
C[C@@H]1CN([C@H](C)CO)C(=O)Cc2cc(N(C)C)ccc2O[C@H]1CN(C)Cc1ccncc1	-1.1
COc1ccc(CN(C)C[C@H]2Oc3ccc(NC(=O)Cc4cn(C)c5ccccc45)cc3C(=O)N([C@@H](C)CO)C[C@@H]2C)cc1	2.3
COc1ccc(NC(=O)Nc2ccc3c(c2)CC(=O)N([C@H](C)CO)C[C@@H](C)[C@H](CN(C)C)O3)cc1	?
C[C@@H]1CN([C@@H](C)CO)C(=O)c2cccc(NC(=O)Nc3ccc4c(c3)OCO4)c2O[C@H]1CN(C)C	8.5
Cc1noc(C)c1NC(=O)Nc1ccc2c(c1)C(=O)N([C@@H](C)CO)C[C@@H](C)[C@@H](CN(C)C)OCCCC[C@@H](C)O2	4.5
C[C@@H]1CN([C@H](C)CO)C(=O)Cc2cc(NC(=O)Nc3ccccc3)ccc2O[C@H]1CN(C)C(=O)Nc1ccccc1	2.5
C[C@H](CO)N1C[C@H](C)[C@@H](CN(C)CC2CC2)Oc2ccc(NC(=O)Nc3ccc(F)cc3)cc2CC1=O	2.1
CNC[C@@H]1Oc2ccc(NC(=O)Nc3c(C)noc3C)cc2CC(=O)N([C@@H](C)CO)C[C@@H]1C	-3.4
C[C@@H]1CN([C@H](C)CO)C(=O)c2cc(NC(=O)CCC(F)(F)F)ccc2O[C@@H](C)CCCCO[C@@H]1CN(C)Cc1ccccc1	7.4
Cc1cc(C(=O)Nc2cccc3c2O[C@@H](CN(C)C(=O)NC2CCCCC2)[C@@H](C)CN([C@H](C)CO)C3=O)n(C)n1	11.6
C[C@@H]1CN([C@@H](C)CO)C(=O)c2cc(NC(=O)CCCN(C)C)ccc2O[C@@H](C)CCCCO[C@@H]1CN(C)S(=O)(=O)c1ccccc1	2.0
C[C@@H]1CN([C@H](C)CO)C(=O)Cc2cc(NC(=O)NC3CCCCC3)ccc2O[C@H]1CN(C)S(=O)(=O)c1ccc(Cl)cc1	4.0
C[C@H](CO)N1C[C@H](C)[C@@H](CN(C)S(=O)(=O)c2cn(C)cn2)Oc2ccc(NC(=O)C3CC3)cc2CC1=O	0.7
C[C@@H]1CN([C@@H](C)CO)C(=O)Cc2cc(NS(=O)(=O)c3cn(C)cn3)ccc2O[C@H]1CN(C)Cc1ccccc1	-2.4
C[C@@H]1CN([C@@H](C)CO)C(=O)c2cc(NS(=O)(=O)c3cn(C)cn3)ccc2O[C@@H](C)CCCCO[C@H]1CN(C)S(=O)(=O)c1cn(C)cn1	1.2
C[C@H](CO)N1C[C@H](C)[C@H](CN(C)S(=O)(=O)c2ccccc2)Oc2ccc(NS(=O)(=O)c3cccs3)cc2CC1=O	-5.0

Quoted from the listing.
C[C@@H]1CN([C@H](C)CO)C(=O)Cc2cc(N(C)C)ccc2O[C@H]1CN(C)Cc1ccncc1 in Ran importin is entered as -1.1
C[C@H](CO)N1C[C@H](C)[C@@H](CN(C)CC2CC2)Oc2ccc(NC(=O)Nc3ccc(F)cc3)cc2CC1=O in Ran importin is entered as 2.1
C[C@@H]1CN([C@@H](C)CO)C(=O)Cc2cc(NC(=O)Cc3cn(C)c4ccccc34)ccc2O[C@H]1CN(C)C(=O)NC1CCCCC1 in Ran importin is entered as -3.8
Cc1noc(C)c1S(=O)(=O)Nc1ccc2c(c1)C(=O)N([C@H](C)CO)C[C@H](C)[C@@H](CN(C)C(=O)NC(C)C)OCCCC[C@@H](C)O2 in Ran importin is entered as -14.6

Additional compounds follow.
SMILES	Ran importin
C[C@@H]1CCCCO[C@H](CN(C)C(=O)c2ccncc2)[C@H](C)CN([C@@H](C)CO)C(=O)c2cc(N(C)C)ccc2O1	-2.2
C[C@H]1CN([C@@H](C)CO)C(=O)CCCn2nncc2CO[C@H]1CN(C)S(=O)(=O)c1ccc2ccccc2c1	-4.3
C[C@H](CO)N1C[C@H](C)[C@@H](CN(C)Cc2ccc3c(c2)OCO3)Oc2c(NS(C)(=O)=O)cccc2C1=O	0.1
C[C@@H]1CCCCO[C@H](CN(C)S(=O)(=O)c2cccs2)[C@@H](C)CN([C@@H](C)CO)C(=O)c2cc(NS(C)(=O)=O)ccc2O1	1.1
COc1ccc(CN(C)C[C@H]2Oc3c(NC(=O)Nc4ccc5c(c4)OCO5)cccc3C(=O)N([C@H](C)CO)C[C@@H]2C)cc1	-4.0
C[C@@H]1CN([C@H](C)CO)C(=O)c2cc(NS(C)(=O)=O)ccc2O[C@@H](C)CCCCO[C@H]1CN(C)S(=O)(=O)c1cccs1	-0.4
COc1ccc(S(=O)(=O)Nc2cccc3c2O[C@@H](CN(C)C)[C@@H](C)CN([C@@H](C)CO)C3=O)cc1	3.8
C[C@H]1CN([C@@H](C)CO)C(=O)c2cc(N(C)C)ccc2O[C@H]1CN(C)S(=O)(=O)c1cn(C)cn1	0.5
COc1ccc(NC(=O)Nc2ccc3c(c2)CC(=O)N([C@H](C)CO)C[C@@H](C)[C@@H](CN(C)C)O3)cc1	-0.3
CNC[C@@H]1Oc2ccc(NC(=O)Nc3ccccc3)cc2CC(=O)N([C@@H](C)CO)C[C@@H]1C	3.1
C[C@@H]1CN([C@H](C)CO)C(=O)c2cc(N(C)C)ccc2O[C@H]1CN(C)C(=O)Nc1ccccc1	4.8
COc1ccc(CN(C)C[C@H]2Oc3ccc(NC(=O)Cc4ccccc4)cc3C(=O)N([C@@H](C)CO)C[C@@H]2C)cc1	-0.9
C[C@H](CO)N1C[C@H](C)[C@H](CN(C)C(=O)NC2CCCCC2)Oc2c(NC(=O)Nc3ccc(F)cc3)cccc2C1=O	0.7
C[C@@H]1CN([C@@H](C)CO)C(=O)Cc2cc(NC(=O)NC3CCCCC3)ccc2O[C@@H]1CN(C)Cc1ccncc1	-5.9
COc1ccc(CN(C)C[C@H]2Oc3c(NC(=O)c4nc5ccccc5s4)cccc3C(=O)N([C@H](C)CO)C[C@@H]2C)cc1	?
COc1ccc(S(=O)(=O)N(C)C[C@@H]2Oc3ccc(NC(=O)Cc4cn(C)c5ccccc45)cc3C(=O)N([C@@H](C)CO)C[C@@H]2C)cc1	-1.2
C[C@H]1CN([C@@H](C)CO)C(=O)c2cccc(NC(=O)c3ccncc3)c2O[C@H]1CN(C)Cc1ccc(C(F)(F)F)cc1	1.7
Cc1noc(C)c1NC(=O)Nc1cccc2c1O[C@H](CN(C)S(=O)(=O)c1cccs1)[C@@H](C)CN([C@H](C)CO)C2=O	2.1
C[C@H](CO)N1C[C@H](C)[C@H](CN(C)C(=O)Nc2cccc3ccccc23)Oc2c(NS(=O)(=O)c3ccc(Cl)cc3)cccc2C1=O	5.3
C[C@@H]1CCCCO[C@@H](CN(C)C(=O)c2ccncc2)[C@H](C)CN([C@H](C)CO)C(=O)c2cc(NC(=O)Cc3ccccc3)ccc2O1	-2.4
C[C@H]1CCCCO[C@@H](CN(C)C)[C@@H](C)CN([C@@H](C)CO)C(=O)c2cc(NS(C)(=O)=O)ccc2O1	-2.4
C[C@@H]1CCCCO[C@H](CN(C)C(=O)Nc2ccccc2)[C@H](C)CN([C@@H](C)CO)C(=O)c2cc(N(C)C)ccc2O1	-2.9
Cc1noc(C)c1S(=O)(=O)N(C)C[C@H]1Oc2ccc(NC(=O)Nc3ccccc3)cc2CC(=O)N([C@H](C)CO)C[C@@H]1C	-1.6
C[C@@H]1CCCCO[C@@H](CN(C)C(=O)Nc2ccccc2)[C@@H](C)CN([C@H](C)CO)C(=O)c2cc(NC(=O)Cc3ccccc3)ccc2O1	?
C[C@H]1CN([C@@H](C)CO)C(=O)CCCn2cc(nn2)CO[C@H]1CN(C)C(=O)Nc1ccc2c(c1)OCO2	-2.1
Cc1noc(C)c1S(=O)(=O)Nc1ccc2c(c1)CC(=O)N([C@@H](C)CO)C[C@H](C)[C@@H](CN(C)S(=O)(=O)c1ccccc1)O2	-2.3
CNC[C@@H]1Oc2ccc(NC(=O)NC3CCCCC3)cc2C(=O)N([C@@H](C)CO)C[C@@H]1C	2.7
C[C@H]1CN([C@@H](C)CO)C(=O)c2cccc(NC(=O)c3ccncc3)c2O[C@H]1CN(C)C(=O)Nc1ccccc1	?
COc1ccc(S(=O)(=O)N(C)C[C@H]2Oc3c(NS(=O)(=O)c4cccs4)cccc3C(=O)N([C@H](C)CO)C[C@@H]2C)cc1	1.6
C[C@H](CO)N1C[C@H](C)[C@@H](CN(C)C(=O)c2ccc3ccn(C)c3c2)OCc2cn(nn2)CCCC1=O	0.4
COc1ccc(CN(C)C[C@@H]2Oc3ccc(NS(=O)(=O)c4ccc(Cl)cc4)cc3CC(=O)N([C@H](C)CO)C[C@@H]2C)cc1	-0.9
C[C@@H]1CN([C@H](C)CO)C(=O)c2cccc(NS(C)(=O)=O)c2O[C@H]1CN(C)Cc1ccccc1	1.1
COc1ccc(CN(C)C[C@@H]2Oc3ccc(NC(=O)CCN4CCOCC4)cc3C(=O)N([C@@H](C)CO)C[C@H]2C)cc1	2.2
C[C@@H]1CN([C@H](C)CO)C(=O)Cc2cc(NC(=O)C3CC3)ccc2O[C@@H]1CN(C)C(=O)Nc1ccccc1	5.0
C[C@H](CO)N1C[C@H](C)[C@@H](CN(C)Cc2ccc(C(=O)O)cc2)Oc2ccc(NC(=O)CCCN(C)C)cc2C1=O	1.2
CNC[C@H]1Oc2ccc(N)cc2C(=O)N([C@H](C)CO)C[C@@H]1C	-5.6
COc1ccc(S(=O)(=O)N(C)C[C@H]2Oc3c(NC(=O)Nc4cccc5ccccc45)cccc3C(=O)N([C@@H](C)CO)C[C@@H]2C)cc1	1.8
CC(C)NC(=O)Nc1cccc2c1O[C@@H](CN(C)Cc1ccc(Cl)c(Cl)c1)[C@@H](C)CN([C@H](C)CO)C2=O	-0.1
COc1ccc(CN(C)C[C@@H]2Oc3ccc(NC(=O)CCN4CCOCC4)cc3C(=O)N([C@H](C)CO)C[C@@H]2C)cc1	2.4
